High-throughput results deposited in PubChem by several laboratories.
Calb FLC: affects C. albicans growth with fluconazole; C. albicans CaCi-2 (fluconazole-resistant clinical isolate) + fluconazole, Alamar Blue growth, 48 h; growth inhibition, % (concentration not given with the values); 0.57% of 300,000 active; AID 1979;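 active = most replicates above 75%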;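 note: all wells also contain fluconazole at 8 µg/ml as a sub-toxic cotreatment; 0% = median of DMSO wells and 100% = median of geldanamycin control wells; wells of about 8 µL received 7.5 nL stock; the first replicate is given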
Beta apoptosis: blocks beta cell apoptosis | AID 435005 | protection from apoptosis, % (no concentration beside the values) | 0.8% of 300,000 active | INS-1E cytokine-induced death, ATP luminescence, 48 h; percent of positive-control rescue, neutral wells zero;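 active = all replicates at 75% or more, or half of them and the mean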;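 note: 0% = cytokine-treated negative control wells and 100% = positive control rescue; higher means more ATP so stronger rescue from cytokine killing; wells of about 40 µL received 100 nL stock; the first replicate is given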
B2AR ag: activates human beta-2 adrenergic receptor causing internalization; P07550; Am2.2-beta2AR cells, FAP receptor internalization, flow cytometry; reference of the scale not given here; response, % (no concentration beside the values); 0.43% of 340,000 active; AID 504454;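 active = response above a set limit, near 3 SD of response in nonfluorescent compounds, cut at about 42% in these data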;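 note: stock transfer was 100 nL into about 11 µL; a reference agonist was the positive control; negative values mostly stem from fluorescent compounds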
Bfl-1 A1 inh: inhibitors of the anti-apoptotic protein A1, read as caspase activation; MEF A1-2A-BIM cells, Caspase-Glo 3/7 luminescence, 3 h; percent of clofoctol response, vehicle zero; caspase activation, % (concentration not given with the values); 0.066% of 330,000 active; AID 2462;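 active = over half of replicate activation scores above 10%, or exactly half above 10 with the replicate mean above 10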;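 note: wells of about 30 µL received 50 nL stock; many hits fall short of the cut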
LANA-H2B inh: blocks KSHV LANA binding to histone H2A/H2B; AID 2629; cell-free LANA-H2A/H2B peptide, fluorescence polarization; inhibition, % (test concentration not listed); Q9QR71; 0.6% of 320,000 active; in the data active = inhibition mostly above about 10%, no sharp cut-off; inactive = mostly below about 6.7%;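 note: stock transfer was 7.5 nL into about 10 µL; 0% = median of vehicle wells and 100% = median of positive control wells; one replicate is shown; the record names a cut of 25% in any replicate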
Target sequence (Q9QR71 whole entry, looked up): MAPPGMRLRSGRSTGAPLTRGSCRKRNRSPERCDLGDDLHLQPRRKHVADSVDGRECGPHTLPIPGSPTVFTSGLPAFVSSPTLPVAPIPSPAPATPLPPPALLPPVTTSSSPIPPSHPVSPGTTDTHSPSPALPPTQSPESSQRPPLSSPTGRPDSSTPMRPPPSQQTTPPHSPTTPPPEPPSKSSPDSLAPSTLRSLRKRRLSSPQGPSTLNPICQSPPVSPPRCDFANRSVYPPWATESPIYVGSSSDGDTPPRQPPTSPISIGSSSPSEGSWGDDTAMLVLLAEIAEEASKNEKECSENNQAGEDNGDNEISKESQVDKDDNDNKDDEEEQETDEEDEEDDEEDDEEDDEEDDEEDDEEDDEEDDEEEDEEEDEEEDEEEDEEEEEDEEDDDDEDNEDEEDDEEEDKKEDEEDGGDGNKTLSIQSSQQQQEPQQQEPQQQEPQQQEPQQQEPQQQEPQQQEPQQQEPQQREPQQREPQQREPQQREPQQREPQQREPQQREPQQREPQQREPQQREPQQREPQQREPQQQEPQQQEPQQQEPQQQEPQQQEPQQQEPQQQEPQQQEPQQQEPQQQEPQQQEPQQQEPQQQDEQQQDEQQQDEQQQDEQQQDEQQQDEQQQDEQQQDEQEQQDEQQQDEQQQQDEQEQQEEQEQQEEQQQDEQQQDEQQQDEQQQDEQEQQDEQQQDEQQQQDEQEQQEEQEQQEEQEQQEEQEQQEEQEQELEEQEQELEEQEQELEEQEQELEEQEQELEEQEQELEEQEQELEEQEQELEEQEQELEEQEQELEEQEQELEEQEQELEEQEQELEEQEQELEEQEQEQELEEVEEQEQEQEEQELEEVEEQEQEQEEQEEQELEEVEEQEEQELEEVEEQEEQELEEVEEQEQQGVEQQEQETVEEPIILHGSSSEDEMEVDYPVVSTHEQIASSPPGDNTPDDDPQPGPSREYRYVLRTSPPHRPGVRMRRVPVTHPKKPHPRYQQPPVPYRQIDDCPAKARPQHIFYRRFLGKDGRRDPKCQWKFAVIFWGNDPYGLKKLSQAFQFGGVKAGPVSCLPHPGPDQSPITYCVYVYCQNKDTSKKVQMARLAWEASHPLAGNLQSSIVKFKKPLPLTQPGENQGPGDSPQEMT
T cruzi repl: T. cruzi replication inhibition | T. cruzi beta-gal in NIH3T3, luminescence, 90 h | inhibition, % (test concentration not listed) | 1.4% of 300,000 active | AID 1885;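 active = mean inhibition across valid replicates above about 55%, limit read from the data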;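 note: signal also drops with host cell toxicity which is not excluded here; 0% = plate median of DMSO wells and 100% = zero luminescence signal; higher percent means less beta-gal luminescence so fewer parasites; stock transfer was 50 nL into about 50 µL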
ALR H2O2 inh: blocks human ALR sulfhydryl oxidase activity; purified ALR, DTT oxidation, H2O2 HRP-luminol luminescence; AID 485317; inhibition, % (no concentration beside the values); P55789; 3.8% of 290,000 active;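 active = mean and each replicate at 75% or more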;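 note: stock transfer was 7.5 nL into about 7.5 µL; 0% = neutral wells and 100% = wells with inactivated enzyme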
rRNA inh HTS: inhibitors of bacterial rRNA selective over humanized ribosomes. E. coli WT GFP vs humanized-ribosome RFP mutants, fluorescence, 24 h; stronger effect = lower value; DMSO median 0, no signal -100. GFP signal change (wild-type ribosome), % (concentration not given with the values). 1.6% of 350,000 active. AID 720706;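 active = significant combined selectivity score with lowered wild-type GFP, culture density cut under 30%, mutant RFP and density less affected; inactive = any of these conditions unmet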; note: one replicate is shown; some compounds called inactive have numbers as strong as hits
rRNA inh HTS OD600: also measured in rRNA inh HTS; calls as there; OD600 change, %; measured here: OD600 growth;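 optical density of the mix in the first replicate; 0 = DMSO median and -100 = no signal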
rRNA inh HTS RFP: second read-out of rRNA inh HTS, no call of its own (marks repeat the call); RFP signal change, %; measured here: RFP humanized mutant strains;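 first replicate; 0 = DMSO median and -100 = no signal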
* = called active by the depositor; · = no result given.

SMILES | Calb FLC | Beta apoptosis | B2AR ag | Bfl-1 A1 inh | LANA-H2B inh | T cruzi repl | ALR H2O2 inh | rRNA inh HTS | rRNA inh HTS OD600 | rRNA inh HTS RFP
Cc1cc(/C=C(\C#N)C(=O)Nc2ccc(F)cc2)c(C)n1-c1ccc(N2CCOCC2)c([N+](=O)[O-])c1 | -10 | 14 | 3 | 1.5 | -4.8 | 51 | -3 | · | · | ·
COc1ccccc1OCC(=O)Nc1ccc(NC(=O)COc2ccccc2OC)cc1 | 5 | 7 | 8 | -0.5 | -6.1 | 4 | -6 | 11 | 16 | 6.1
c1ccc(C2CC(c3cccs3)n3nnnc3N2)cc1 (configuration not stated) | 10 | -2 | 0 | -0.1 | 5.3 | -3 | -16 | · | · | ·
CCN1CCN(S(=O)(=O)c2cc3c(cc2Cl)NC(=O)CO3)CC1 | 4 | -7 | 1 | 0.5 | -11 | -4 | -31 | 3 | 16 | -0.5
CCOC(=O)c1ccccc1NC(=O)CSc1nnc(COc2ccccc2)n1CC | 0 | -3 | 3 | 1.3 | -0.7 | -7 | -16 | · | · | ·
CN=C1S/C(=C\c2ccc(N3CCCC3)c(F)c2)C(=O)N1C | 21 | -1 | 17 | -3.2 | 4.1 | -9 | 8 | 14 | 1 | 10
Cn1cnnc1SCc1nc(N)nc(Nc2ccccc2)n1 | -2 | -4 | 2 | -0.3 | 8.6 | -10 | -5 | · | · | ·
Cc1cc2nc(-c3ccc(SCc4ccc(C(=O)O)cc4)nc3)[nH]c2cc1C | 8 | 6 | 6 | -0.6 | -8.7 | -1 | 99* | 17 | 15 | 32
Cc1ccc(COc2ccc(/C=N/NC(=O)c3ccc(CN4CCOCC4)cc3)cc2)cc1 | -13 | 8 | 13 | -0.1 | 2.6 | 0 | 1 | · | · | ·
O=c1c(F)cn(C2CCCO2)c(=O)n1Cc1ccccc1Cl (configuration not stated) | -1 | -3 | -1 | 0.9 | -1.8 | -15 | -7 | · | · | ·
CCOC(=O)C1CCCN(Cc2cn[nH]c2-c2ccc(F)cc2F)C1 (configuration not stated) | -1 | -10 | -5 | 1.1 | -4.4 | 5 | -10 | 3 | 2 | -2.2
Cc1ccc(-n2nc3c(=O)n(CC(=O)NCCc4ccc(Cl)cc4)nc(C)c3c2C)cc1 | 4 | 4 | -1 | 0.3 | 0.5 | -22 | -2 | 7 | 15 | -0.3
O=C(NCc1ccccc1)c1ccc(CS(=O)(=O)c2ccccc2)o1 | 6 | 2 | 1 | -0.4 | -2.7 | -10 | · | · | · | ·
c1ccc(-c2nn3c(C4CCCCC4)nnc3s2)cc1 | 10 | 0 | 4 | -0.7 | 1.7 | 8 | · | · | · | ·
NS(=O)(=O)c1ccc(NC(=O)CN2CCCc3ccccc32)cc1 | 1 | -4 | 1 | 0.4 | -3.5 | -8 | -1 | 14 | -3 | 31
Cc1ccc(-c2nc(CS(=O)CC(=O)NCCN3CCCC3)c(C)o2)cc1 (configuration not stated) | -5 | -12 | 2 | -0.4 | -0.9 | -20 | 99* | 3 | 5 | 0.8
CC(=O)Cc1nsc(NC(=O)c2ccc(COc3cccc(C)c3)o2)n1 | 9 | -1 | 1 | 0.7 | -3.0 | 4 | · | -7 | 1 | 5.8
Cc1ccc(NC(=O)c2noc3c2CC(C(C)(C)C)CC3)cc1 (configuration not stated) | 25 | -6 | -4 | -0.8 | -3.7 | 5 | -1 | · | · | ·
O=C1C=C(Nc2ccc(F)cc2)c2ccccc2C1=O | · | 106* | 16 | 0.4 | 5.8 | · | 25 | -16 | -29 | -10
O=C(N/N=C/c1ccncc1)c1nc2ccccc2c(=O)[nH]1 | 3 | -1 | 7 | 0.7 | -2.8 | -10 | -2 | 7 | 2 | 1.7
CCN(CC)C(=O)Cn1cc(C(=O)C(=O)N2CCc3ccccc32)c2ccccc21 | -8 | -5 | 2 | -0.9 | · | 29 | · | 9 | -3 | 18
COc1ccc(CCNc2ncnc3c2c(C)c(C)n3CCCN(C)C)cc1OC | 3 | 2 | 13 | -0.2 | -1.9 | 43 | -2 | 9 | 1 | 2.0
Cc1cc(NC(=O)CC2CCCC2)n(-c2nc3ccccc3[nH]2)n1 | -4 | 21 | -5 | -1.5 | 0.6 | 19 | -8 | · | · | ·
COc1ccc(NC(=O)c2c(NC(=O)CNCC(C)C)sc3c2CCC3)c(OC)c1 | · | 1 | 2 | 0.1 | -1.7 | 40 | -2 | 3 | -2 | -0.6
O=C(Nc1ccccc1N1CCCC1)C1CCN(S(=O)(=O)c2cccc(C(F)(F)F)c2)CC1 | -5 | -4 | -4 | 0.4 | -1.1 | 17 | -20 | 0 | -5 | 10
CCOC(=O)c1ccc(N2CCN(c3ccccc3F)CC2)c(NC(=O)Nc2ccccc2)c1 | -4 | 22 | 4 | 0.6 | 4.3 | 48 | -18 | 10 | 9 | -9.3
CC(C)CC(NS(=O)(=O)c1ccc2c(c1)oc(=O)n2C)C(=O)NC1CCCc2ccccc21 (configuration not stated) | 15 | -12 | 2 | 0.1 | -3.7 | -4 | · | 2 | 7 | 0.1
COc1ccc2[nH]c(=O)c(CN(Cc3cccs3)Cc3nnnn3C(C)(C)C)cc2c1 | 4 | -21 | 5 | 0.0 | -5.1 | 24 | -11 | · | · | ·
O=C(COc1ccc([N+](=O)[O-])cc1)Nc1cccnc1 | 7 | -4 | -4 | -0.7 | -2.2 | -13 | · | 25 | 20 | 3.0
Cc1cccc(C)c1NC(=O)CCS(=O)(=O)c1ccc(Br)cc1 | -1 | -5 | -1 | 1.4 | 1.8 | 6 | -4 | 9 | 8 | 1.2
COc1ccc(OCC(O)CNCCNc2nccc(C(F)(F)F)n2)cc1 (configuration not stated) | -3 | 0 | -9 | 1.8 | 2.1 | 30 | -3 | 9 | -8 | 3.1
CC(C)Cc1nnc(NC(=O)c2ccc3c(c2)NC(=O)C(C)S3)s1 (configuration not stated) | 1 | 3 | 7 | 0.1 | 1.4 | -9 | -7 | 10 | 9 | -1.3
N#Cc1c(C(F)(F)F)cc(-c2cccs2)nc1SCc1cccnc1 | 47 | · | -12 | -0.2 | 4.0 | 27 | -4 | · | · | ·
COCCNC(=O)/C(C#N)=C/c1cccs1 | -10 | -4 | -5 | 0.3 | 4.0 | · | -6 | 8 | 10 | -0.1
NS(=O)(=O)c1ccc(N/N=C/c2ccc(O)cc2O)c([N+](=O)[O-])c1 | 11 | 13 | 0 | -0.5 | -2.5 | -8 | 21 | 10 | 10 | 1.2
CCN(CC(=O)N1CCC(C)CC1)S(=O)(=O)c1ccc(C)cc1 | -7 | -4 | 1 | -0.2 | 6.0 | -3 | -2 | 6 | 3 | 0.4
CSc1ncccc1C(=O)NCC(c1cccs1)N1CCOCC1 (configuration not stated) | -2 | 2 | 5 | 0.5 | 6.8 | -3 | 2 | 1 | 10 | -0.4
Cc1cccc(C)c1NC(=O)C(NC=O)c1ccccc1Cl (configuration not stated) | 3 | -1 | -1 | 0.3 | 3.9 | -15 | -3 | · | · | ·
CS(=O)(=O)N1CCN(C(=O)Cc2cccs2)CC1 | -6 | 1 | 5 | 2.0 | -5.1 | -9 | -4 | · | · | ·
CCc1ccc(-c2nnn(CCC(=O)OC)n2)cc1 | -2 | · | 4 | -3.2 | 2.5 | -14 | 6 | · | · | ·
O=c1c2ccccc2nnn1Cc1ccc(F)cc1 | -2 | 1 | -7 | -0.4 | 11 | -10 | -12 | 3 | -5 | -3.6
COC(=O)c1cc(COc2ccc3oc(C)c(C(=O)OC)c3c2)c(C)o1 | 8 | -1 | 2 | 0.0 | 1.3 | -8 | 0 | -18 | -12 | 0.1
Cc1ccc(S(=O)(=O)CCN2CCN(c3ccccc3)CC2)cc1 | -1 | -1 | 4 | -0.5 | 3.0 | -3 | · | 4 | -6 | -4.5
COc1cc(CC(=O)Nc2nc(-c3ccccc3)c(C(C)=O)s2)cc(OC)c1OC | 1 | 7 | -6 | -0.6 | 2.0 | 21 | 1 | -10 | -25 | 0.8
COc1ccc(Cl)cc1NC(=O)CN(C)C(=O)CCC(=O)c1cc(C)sc1C | 2 | 2 | -12 | -0.2 | 0.5 | -8 | -2 | -14 | -20 | -2.4
COC(=O)Cc1c(C)[nH]n(-c2cc(Cl)cc(Cl)c2)c1=O | 6 | · | 5 | 0.5 | 0.8 | -26 | 9 | -40 | -50 | -8.9
COc1cc(COC(=O)Oc2ccc(CNC(C)=O)cc2OC)c([N+](=O)[O-])cc1OC | -2 | -3 | -4 | 0.3 | 1.9 | -14 | -27 | -15 | -7 | 11
O=C1C(=O)N(CCN2CCOCC2)C(c2cccc(Cl)c2)/C1=C(\O)c1ccc2c(c1)OCCO2 (configuration not stated) | 1 | -2 | 2 | -0.9 | -0.7 | -5 | 15 | 7 | 14 | 4.2
CN(Cc1ccccc1)c1ccc(C(CC(N)=O)NC(=O)Cc2cccc3ccccc23)cc1[N+](=O)[O-] (configuration not stated) | 16 | 6 | -6 | -2.1 | 4.5 | 0 | -16 | -1 | 7 | -2.8
Cc1nn(-c2ccccc2)c2sc(C(=O)OCC(=O)N3CCCCC3)cc12 | -8 | -3 | -3 | 1.0 | -3.6 | -2 | -2 | · | · | ·
CCCN(CC(=O)Nc1ccc(C(N)=O)cc1)CC(=O)Nc1cc(Cl)ccc1Cl | 22 | 1 | -1 | -0.5 | 6.7 | -29 | 2 | 5 | 6 | 4.0
O=C(c1ccc2ccccc2c1)N1CCCC1 | -6 | -3 | -1 | 0.0 | -1.7 | -12 | -4 | 7 | 2 | -2.0
O=C(c1ccco1)N1CCN(C(c2ccccc2Cl)c2nnnn2Cc2cccs2)CC1 (configuration not stated) | 0 | · | 10 | 0.5 | 3.3 | 3 | 2 | · | · | ·
CCCC1(c2ccccc2)NC(=O)N(CC(=O)Nc2ccccc2C(F)(F)F)C1=O (configuration not stated) | 4 | 3 | 0 | -0.7 | -0.3 | 7 | 1 | -3 | 5 | -0.5
CCCCNC(=O)c1onc(CCl)c1C(=O)OC | 1 | -14 | 4 | 1.3 | 4.5 | -27 | 97* | 15 | -5 | 28
CCN(CC)CC(=O)Nc1nn(-c2ccccc2)nc1C(N)=O | 18 | -7 | -10 | -2.1 | -5.6 | -10 | -7 | · | · | ·
COc1ccc(C(=O)NCC(c2cccnc2)N2CCN(c3ccccc3OC)CC2)cc1OC (configuration not stated) | 0 | -5 | -6 | 0.0 | 6.4 | 41 | 50 | 7 | -1 | -7.8
CCOc1ccc(NC(=O)c2ccc(-c3csc(C)n3)cc2)cc1 | 18 | -2 | 0 | -0.1 | 4.1 | -4 | -11 | 18 | 10 | 2.1
O=C(Nc1nnc(COc2ccc(F)cc2)s1)c1cccs1 | 14 | 0 | -6 | -0.3 | -1.9 | -21 | -3 | · | · | ·

Looked up by structure from the entries so far, 2 records:
SMILES | Calb FLC | Beta apoptosis | B2AR ag | Bfl-1 A1 inh | LANA-H2B inh | T cruzi repl | ALR H2O2 inh | rRNA inh HTS | rRNA inh HTS OD600 | rRNA inh HTS RFP
CCCC1(c2ccccc2)NC(=O)N(CC(=O)Nc2ccccc2C(F)(F)F)C1=O (configuration not stated) | 4 | 3 | 0 | -0.7 | -0.3 | 7 | 1 | -3 | 5 | -0.5
COc1ccc(Cl)cc1NC(=O)CN(C)C(=O)CCC(=O)c1cc(C)sc1C | 2 | 2 | -12 | -0.2 | 0.5 | -8 | -2 | -14 | -20 | -2.4

Only part of the results is shown. The share of hits here may be higher or lower than overall.
